NS1 inh = influenza NS1 inhibition | S. cerevisiae slowed by influenza A NS1, growth recovery by OD600 | Potency, µM (highest dose often 46.1 µM), without a hit: at the top dose activity, positive = more growth | hit rate 0.4% among 270,000 | AID 2326; note: actives are rising curves; nearly all actives have a fitted effect of over 50% in size
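Recovery from NS1-induced slow growth read by OD600 in budding yeast switched to galactose assay medium (pH 6.0, -URA) at 1:100 dilution. Compound 23 nl per well; the matching strain lacking NS1 serves as control.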
2A StopGo = FMDV 2A StopGo reporter, luciferase signal | Potency, µM (titrated, usually from 57.9 µM), without a hit: at the highest dose signal change, negative = less light | hit rate 1.2% among 410,000 | human cells with a luciferase reporter of 2A StopGo recoding; control for the full effect not named in the record | AID 1159524; active = well fitted falling curve with a large enough effect; inconclusive = small, poorly fitted or top-dose-only effect; inactive = no such curve, though single readings can be large or run the other way; tested in HEK293T cells; note: % is set by controls: 0 for no effect and ±100 for the full control effect; nearly all actives have a fitted effect of over 45% in size; luciferase light after 4 h
SARS PLpro yeast = blocks SARS-CoV papain-like protease in a yeast assay | S. cerevisiae expressing SARS-CoV PLpro, growth rescue; control for the full effect not named in the record | Potency, µM (doses to about 32.9 µM), without a hit: at the highest dose activity, positive = growth rescue | hit rate 0.19% among 330,000 | AID 485353; note: 0% is about no effect; nearly all actives have a fitted effect of over 55% in size; growth read by luminescence after 48 h
Cruzain inh Det = cruzain (T. cruzi) inhibition with detergent; P25779; purified cruzain, Z-FR-AMC fluorescence, 0.01% Triton; Potency, µM, for the others: max response, negative = inhibition, hits mostly inhibitors; hit rate 0.43% among 200,000; active = well fitted curve in the direction sought with a large enough effect; inconclusive = small, poorly fitted or top-dose-only effect, or another doubt; inactive = no such curve, though single readings can be large; an effect the other way counts as inactive or inconclusive;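 note: plate controls were neutral wells for no effect and buffer without enzyme for full effect; nearly all actives have a fitted effect of over 40% in size; top concentration of the series not given in the record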
Target sequence (P25779 123-467 limits assumed): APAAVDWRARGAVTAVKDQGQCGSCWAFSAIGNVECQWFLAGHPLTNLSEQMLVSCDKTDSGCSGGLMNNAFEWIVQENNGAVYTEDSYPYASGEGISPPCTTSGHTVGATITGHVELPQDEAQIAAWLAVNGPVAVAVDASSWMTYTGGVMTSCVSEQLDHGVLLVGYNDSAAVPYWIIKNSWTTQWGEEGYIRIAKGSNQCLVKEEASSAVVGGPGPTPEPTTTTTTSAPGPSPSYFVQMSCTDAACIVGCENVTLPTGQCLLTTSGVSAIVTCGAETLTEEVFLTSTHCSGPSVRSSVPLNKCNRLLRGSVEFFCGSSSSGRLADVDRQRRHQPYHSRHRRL
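Enzyme 1.5 nM, Z-FR-AMC 2 uM, NaOAc 100 mM pH 5.5, DTT 5 mM, Triton X-100 0.01%; 15 min RT compound preincubation; kinetic ex360/em450, 60 s delta.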
RE007 growth inh = less growth of the S. pombe RE007 Vpr strain; Potency, µM (top dose mostly 92.2 µM), inactives show at the top dose activity change, negative = less growth; hit rate 0.21% among 360,000; S. pombe RE007 Vpr strain, BacTiter-Glo ATP luminescence, 24 h; control for the full effect not named in the record; active = well fitted falling curve with a large enough effect; inconclusive = small, poorly fitted or top-dose-only effect; inactive = no such curve, though single readings can be large or run the other way;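 note: % is set by controls: 0 for no effect and ±100 for the full control effect; nearly all actives have a fitted effect of over 50% in size; the assay follows cell death caused by Vpr and the record does not say whether a fall means rescue or toxicity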
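Fission yeast strain RE007, carrying one chromosomally integrated HIV-1 vpr copy, was seeded at OD 0.01 in PMG+AL medium with 23 nL pinned compound. After 24 h at 30 °C and 99% humidity, viability was read by BacTiter-Glo luminescence.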
Lassa entry inh = Lassa virus entry inhibition | Lassa virus pseudotype entry inhibition, cell reporter; control for the full effect not named in the record | Potency, µM (titrated, usually from 37.9 µM), for inactives: top-dose activity change, negative = inhibition, hits mostly inhibitors | hit rate 1.2% among 300,000; active means well fitted inhibition curve with a large enough effect; inconclusive means small, poorly fitted or top-dose-only effect, or effect the other way; inactive means flat fitted curve, though single readings scatter; tested in HEK293 cells; note: % is set by controls: 0 for no effect and ±100 for the full control effect; nearly all actives have a fitted effect of over 50% in size; luciferase read-out
Marburg entry inh = Marburg virus entry inhibition; Marburg virus pseudotyped entry inhibition, cell reporter; control for the full effect not named in the record; about a third of the inactives were read at about 46 µM; Potency, µM (titrated, usually from 37.8 µM), without a hit: top-dose activity change, negative = inhibition, actives largely listed as inhibitors; hit rate 1.8% among 300,000; AID 540276; active = well fitted inhibition curve with a large enough effect; inconclusive = small, poorly fitted or top-dose-only effect, or effect the other way; inactive = flat fitted curve, though single readings scatter; tested in HEK293 cells; about a fifth of its hits are not listed in these tables; note: % is set by controls: 0 for no effect and ±100 for the full control effect; luciferase read-out
Cruzain noTriton = blocks cruzain activity in detergent-free assay; P25779; AID 1476; hit rate 2.3% among 200,000; purified cruzain, Z-FR-AMC fluorescence, no detergent; Potency, µM, for inactives: max response, negative = inhibition, hits mostly inhibitors; active = well fitted curve in the direction sought with a large enough effect; inconclusive = small, poorly fitted or top-dose-only effect, or another doubt; inactive = no such curve, though single readings can be large; an effect the other way counts as inactive or inconclusive;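 note: plate controls were enzyme without inhibitor for no effect and buffer without enzyme for full effect; nearly all actives have a fitted effect of over 40% in size; top concentration of the series not given in the record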
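Detergent-free condition (0.00005% Triton X-100) in acetate buffer pH 5.5 with DTT. 1.5 nM enzyme and compound were pre-mixed 15 min, then 2 uM Z-FR-AMC substrate added; reaction progress from fluorescence change between first and third reads (60 s).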
An asterisk follows results filed as active; ? = inconclusive; / = not tested or not shown; & = joins results of further samples; [ ] = remark or other dose. Unless noted, calls come from the whole dose curve; as a rule, active means well fitted rising curve with a large enough effect; inconclusive means small, poorly fitted or top-dose-only effect; inactive means no such curve, though single readings can be large or run the other way. Potency is the fitted concentration of half-maximal effect.

SMILES	NS1 inh	2A StopGo	SARS PLpro yeast	Cruzain inh Det	RE007 growth inh	Lassa entry inh	Marburg entry inh	Cruzain noTriton
CCOc1ccc(S(=O)(=O)N(CC)CC(=O)NCc2ccncc2)cc1C	-8.1%	-7.5%	-2.0%	/	-25.9%	-22.4%	10.8%[46.1 µM]	/
CCOC(=O)c1sc(N)nc1C(C)(C)C	-7.1%	-15.6%	-5.0%	-3.9%	3.6%	-7.7%	-15.2%	-0.4%
O=C(Cc1ccc(F)cc1)NC1CCSC1=O (stereo not given)	0.2%	0.2%	0.4%	/	21.8%	3.6%	4.2%[46.1 µM]	/
O=C(NC1CC2CCC(C1)N2Cc1ccccc1)c1ccccc1Br (stereo not given)	-7.6%	9.8%	3.8%	/	2.0%	/	/	/
Cc1nn(C)c(=O)n1N(C)c1ncc(C(F)(F)F)cc1Cl	/	-1.3%	4.7%	/	-6.3%	9.3%	8.7%[46.1 µM]	/
Cc1nc(NCCc2ccccc2)c2oc3ccccc3c2n1	-14.3%	?	-8.7%	-3.6%	?	0.4%	?	2.5%
Cc1cccc(NC(=O)CSc2nc(-c3ccco3)cc(C(F)(F)F)n2)c1C	/	-18.7%	/	-1.2%	/	?	?	-0.4%
CC(=O)N1CCCc2cc(S(=O)(=O)N3CCN(c4cccc(C(F)(F)F)c4)CC3)ccc21	/	?	/	-8.5%	/	-8.2%[46.1 µM]	/	?
O=C(NC1CCCc2ccccc21)c1cn2ccccc2n1 (stereo not given)	/	43.3%[activator]	-2.1%	/	-6.3%	7.3%	5.4%	/
CCN(CCCNC(=O)C1CCC(=O)N1Cc1ccc(C)cc1)c1cccc(C)c1 (stereo not given)	-28.9%	-15.1%	-8.2%	4.4%	-17.2%	-22.2%	-21.6%	?
Cc1csc(=O)n1CCC(=O)OCc1nnc(-c2ccccc2Cl)o1	/	18.3%	-1.6%	/	-16.9%	4.8%	-0.2%	/
Cc1ccc(C(=O)N/C(=C\c2ccco2)C(=O)NCCN2CCCCC2)cc1C	-2.3%	-7.5%	-0.3%	/	-6.3%	/	-29.5%[46.1 µM]	/
CON(C)S(=O)(=O)c1cccc(C(=O)Nc2ccc(S(=O)(=O)NC3=NCCCCC3)cc2)c1	/	-24.5%	-2.1%	/	3.0%	-11.9%	-28.4%	/
CCn1c(COc2ccc(=O)n(-c3ccccc3)n2)n[nH]c1=S	/	-8.3%	3.5%	/	6.2%	-1.5%[46.1 µM]	4.0%[46.1 µM]	/
Cc1ccc(NCc2ccc(O)c3ncccc23)cc1C	-51.7%	-8.8%	-3.2%	/	-26.8%	?	?	/
O=C(c1cccc(F)c1)N1CCc2ccccc2C1	?	58.9%[activator]	-14.3%	5.6%	-6.7%	9.7%	25.5%	2.6%
O=C(CCN1C(=O)/C(=C/c2ccc(F)cc2)SC1=S)NNC(=O)c1cccnc1	9.8%	-2.4%	14.5%	-6.9%	-2.2%	-0.7%	0.8%	3.9%
CCCCN(CC)CCNC(=O)c1c(C)oc2ncnc(N3CCOCC3)c12	/	-23.8%	/	-1.7%	/	27.8%[46.1 µM]	/	-4.2%
Cc1cc(OC(=O)c2ccccc2Cl)c([N+](=O)[O-])c(=O)[nH]1	-11.4%	0.0%	1.4%	/	-8.3%	/	/	/
COc1ccc(N2CC(C(=O)N3CCN(C(=O)c4ccco4)CC3)CC2=O)cc1 (stereo not given)	-16.6%	-9.0%	1.4%	/	-7.6%	2.6%	-26.4%[46.1 µM]	/
CC1CCC/C(=N\Nc2ccc(Cl)c(C(=O)O)c2)C1 (stereo not given)	10.9%	30.2%[activator]	-18.5%	-0.2%	?	?	1.6%	3.7%
COCCNC(=O)c1c(NC(=O)c2cc(=O)c3cc(C)cc(C)c3o2)sc2c1CCCC2	/	-1.2%	/	-1.5%	/	20.8%[46.1 µM]	2.3%[46.1 µM]	0.1%
CCOc1ccc(CNC(=O)c2cc3oc4ccccc4c3n2C)cc1	-30.1%	4.6%&-11.9%	-5.1%	-14.3%&-14.4%	-5.3%	?	3.98µM*	-13.5%&-22.5%
O=C(O)CN1C(=O)/C(=C/c2ccc(N3CCCCC3)o2)SC1=S	?	?	6.5%	/	-10.9%	/	/	/
COc1cc(OC)c(-c2cc(C(=O)O)ccc2OC)c(OC)c1	28.4%	-9.0%	22.7%	2.0%	5.5%	?	0.5%	-7.5%
C=CCNC(=O)c1cnc2n(c1=O)CCS2	-2.1%	-6.3%	10.2%	5.1%	-0.7%	/	/	12.7%
CCOC(=O)CSc1nc2sc3c(c2c(=O)n1C1CCCCC1)CCN(C)C3	25.3%	?	-23.0%	-12.7%	-6.2%	0.0%	2.9%	-29.6%
Cc1cc(=O)oc2cc(OCC(=O)NCc3ccco3)ccc12	-5.4%	41.4%[activator]	-18.5%	-4.1%	5.1%	4.6%	-2.4%	-9.1%
Cc1ccc(N(CCC#N)C(=O)COC(=O)C2=COCCO2)cc1	/	-10.2%	1.3%	/	-1.5%	11.4%	-2.9%	/
CC(=O)Nc1ccc(C(=O)NNC(=O)CCc2ccccc2)cc1	1.6%	-6.5%	1.8%	4.8%	-10.7%	-1.6%	1.3%	-12.1%
C/C(=N\Nc1nccnc1Cl)c1ccc(Br)cc1	7.0%	32.0%[activator]	1.1%	/	3.1%	/	/	/
O=C(NCc1ccccc1Cl)C1CCC(=O)N(C2CC2)C1 (stereo not given)	-15.4%	3.5%	2.5%	/	-3.7%	11.3%	?	/
COc1ccc(S(=O)(=O)/N=C2\C=C(Nc3ccc(O)cc3)C(=O)c3ccccc32)cc1	-0.4%	7.94µM*	-1.4%	/	-21.0%	?	?	/
CCOC(=O)Nc1sc2c(c1C#N)CCC(C)C2 (stereo not given)	-8.0%	38.0%[activator]	-2.5%	-0.3%	-8.2%	10.3%	?	-20.8%
COc1ccc(OC)c(C(C)NC(=O)Cn2c(=O)cc(C)c3c(C)nn(-c4ccc(C)cc4)c32)c1 (stereo not given)	/	-5.0%	/	-0.7%	/	-0.2%[46.1 µM]	/	-2.0%
CCOc1nc(S(=O)(=O)c2ccc(C)cc2)c(Cl)s1	1.3%	-2.6%	8.6%	-0.9%	18.7%	-1.1%	?	-0.2%
[O-][n+]1onc2c1CCc1c-2nn(-c2ccccc2Cl)[n+]1[O-]	-11.8%	/	-7.1%	1.9%	3.4%	?	?	1.3%
CC(C)NS(=O)(=O)c1ccc(CCC(=O)N2CCCCC2)cc1	1.0%	-8.4%	0.2%	/	-3.2%	?	0.6%[46.1 µM]	/
Nc1ccc2c(c1)C(=O)c1cc(Cl)c(Cl)cc1-2	/	-16.7%	/	/	-10.9%	-1.4%[46.1 µM]	10.7%[46.1 µM]	/
CCOC(=O)c1cc2c(=O)n3ccccc3nc2n(C(C)C)c1=NC(=O)c1ccco1	/	12.5%	-4.7%	/	-4.3%	-26.9%	?	/
CC1(C)CC(=O)C(C=NCCN2CCN(CC(=O)Nc3ccccc3)CC2)=C(O)C1	-10.1%	0.0%	27.8%	-0.7%	3.8%	4.5%	-1.0%	-2.8%
COC(=O)c1c(NC(=O)C2(C)Cc3ccccc3C(=O)O2)sc2c1CCCC2 (stereo not given)	5.9%	-5.8%	-2.8%	-5.6%	7.0%	?	?	?
CC(=O)N1CCCc2cc(S(=O)(=O)NC(C(=O)NCc3ccc(C)cc3)C(C)C)ccc21 (stereo not given)	-0.9%	-1.2%	3.9%	-0.1%	1.1%	?	3.0%	15.7%
O=C(NC1CC1)C1CC(=O)N(c2cccc(Cl)c2Cl)C1 (stereo not given)	-9.9%	7.5%	-1.8%	/	-2.8%	/	/	/
COc1cc(S(=O)(=O)NC2CCCCC2)ccc1Cl	-72.5%	52.2%[activator]	-48.9%	-6.3%	1.6%	0.4%	-7.7%	-5.9%
CCc1nnc(NC(=O)c2cnccn2)s1	-24.2%	0.0%	?	7.0%	8.1%	26.5%	7.4%	3.4%
Fc1cccc(Cl)c1CNCc1cccnc1	8.8%	-22.9%	9.0%	/	-1.7%	13.9%[46.1 µM]	-14.6%[46.1 µM]	/
COc1cc2c(C(=O)NCCCN3CC(C)CC(C)C3)cn(CC(C)C)c(=O)c2cc1OC (stereo not given)	-7.1%	-1.1%	0.9%	5.5%	-7.6%	-4.5%	5.3%&5.3%	-0.5%
O=C(Nc1ccc(Cl)cn1)c1ccc(Br)c(S(=O)(=O)N2CCCCC2)c1	1.0%	?	0.4%	/	3.6%	19.9%[46.1 µM]	?	/
CCN(CC)CCNC(=O)Cn1nc(-c2ccccc2)c2ccccc2c1=O	-1.3%	-16.7%	-2.0%	0.6%	-3.0%	2.8%	?	8.4%
O=C(O)c1cccc(Nc2nc(-c3ccccc3)nc3ccccc23)c1	5.7%	-1.7%	1.7%	/	3.3%	10.1%	?	/
CCn1c(C)nc2c(=O)oc3ccccc3c21	-8.3%	-17.7%	0.2%	0.1%	-1.7%	?	?	4.2%
CC(C)c1ccc(OCC(=O)N(Cc2ccccc2)c2ccccn2)cc1	-28.7%	28.0%	-11.5%	-7.7%	1.1%	?	-6.4%	-2.5%
Cc1noc(C)c1COc1cccc(C(=O)OCCOc2ccc(F)cc2)c1	-5.3%	-19.3%	-7.8%	-1.0%	-14.8%	?	?	1.4%
Cc1nc2c(C#N)c[nH]n2c(=O)c1CCO	-2.5%	-1.4%	1.2%	/	7.7%	/	/	/
O=C(NNc1ccc([N+](=O)[O-])cc1)c1ccco1	-119.7%	-7.0%	-5.7%	/	-17.0%	/	/	/
O=C(CNS(=O)(=O)c1ccc(F)cc1)Nc1ccc(C(F)(F)F)cc1	2.2%	-29.3%	-6.4%	-3.4%	1.0%	-13.6%	-4.1%	4.8%
Cc1noc(NS(=O)(=O)c2ccc(NC(=O)C(F)(F)C(F)(F)C(F)(F)F)cc2)c1C	/	13.5%	/	/	5.6%	10.2%[46.1 µM]	10.5%[46.1 µM]	/

Bioassay records as filed in PubChem.
